Bioassay records: PubChem BioAssay, Fisher Drug Discovery Resource Center
NPYLR7 agonist – activates Aedes aegypti NPYLR7 receptor | activation, % at 10 µM | HEK293T NPYLR7/Galpha15, GCaMP6s calcium fluorescence | 0.15% of 270,000 active | AID 1259423; in the data active = activation above about 40%;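 note: 0% = vehicle and 100% = reference agonist at the receptor; some compounds past the cut are filed as inactive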
NPYLR7 agonist max-min – also measured in NPYLR7 agonist; calls as there; activation, %; measured here: Max-Min RFU normalised activation; some inactives read as strong as hits;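 span of the calcium signal over five minutes; 0% = vehicle and 100% = native peptide agonist; compound fluorescence can raise it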
Starred values were filed as active, the others as inactive; & = joins results of further samples.

SMILES	NPYLR7 agonist	NPYLR7 agonist max-min
O=C(Nc1ccccc1)N1CCc2nc(NCc3cccc(Oc4ccccc4)c3)ncc2C1	-2	-6
CC(C)C(C)n1nccc1NC(=O)c1cccc(-n2cnnc2)n1 (stereo unspecified)	4	-4
CNC(=O)CN(C)c1nc(-c2ccncc2)nc2c1CCN(C(C)=O)C2	13	-3
CC(=O)c1ccc(NC(=O)Cn2cnc([N+](=O)[O-])n2)cc1	-8	-14
CCOc1ccc(C#N)cc1NC(=O)CCc1ccc(OC)c(F)c1	5	5
CC(c1ccncc1)n1ncc2cc(CCCO)cnc21 (stereo unspecified)	0	-5
CNC(=O)CSc1nc(-c2ccccc2)c(NC(=O)CC2CCCC2)s1	-7	-9
CCCn1c(SCC(O)c2ccccc2Cl)n[nH]c1=O (stereo unspecified)	6	6
COc1cccc(-c2nnc(SCc3ccc(C(=O)NCc4ccco4)cc3)n2-c2cccc(C)c2)c1	17	24
CS(=O)(=O)Cc1cccc(C(=O)NC2CCCCCC2)c1	-2	1
COc1cccc(CCNC(=O)CC2CSc3nc4c(c(=O)n32)CCCC4)c1 (stereo unspecified)	-1	-1
CCOC(=O)C1(CCc2ccccc2)CCN(C(=O)Cc2nonc2C)CC1	13	16
O=C(Nc1ccc(-c2nc3ccccc3o2)cc1)C1CCN(C(=O)c2ccccc2)CC1	6&1	-1&-1
C=C1CC(=O)C2=C(C)C[C@H](OC(=O)/C(C)=C/C)C3[C@@H](OC(=O)[C@@]3(C)OC(=O)C=C(C)C)C12 (stereo partly specified)	5	3
COCCn1c(=O)c2c(nc3n2CCCN3c2ccc(OC)cc2)n(C)c1=O	15	9
CC(C)N(Cc1ccc2c(c1)OCO2)C(=O)c1cccc(-n2cnnc2)c1	27	11
Cc1cc(S(=O)(=O)N2CCC(c3cn(Cc4cccc(F)c4)c4ccccc34)CC2)c(C)cc1Cl	26	11
CC1COCCN1C(=O)CCCC1CCCCC1 (stereo unspecified)	-5	-7
O=C(C[C@@H]1CCNC[C@@H]1Cc1cc(CSc2ccccc2)on1)NCCN1CCOCC1	-11	-17
COCCN1CC(C(=O)N(C)Cc2ccsc2)CC1=O (stereo unspecified)	10	7
CC(=O)Nc1ccc(Nc2cc(C)nc3c(-c4ccc(C)cc4)cnn23)cc1	-7	-10
COc1ccc(C2CCCCN2C(=O)c2ccc(C(F)(F)F)o2)cc1 (stereo unspecified)	11	13
Cc1cccc(C(=O)N2C(C(=O)NCc3cccnc3)COC23CCN(C(=O)Cc2ccccc2)CC3)c1 (stereo unspecified)	2	11
O=C(c1cccc(Br)n1)N1CCOC(COc2ccc(F)cc2)C1 (stereo unspecified)	-5	-10
CC1(C)Cc2ccccc2C2=CC(=O)C(=O)N21	2	-1

In another format: entries from further up.
structure,NPYLR7 agonist,NPYLR7 agonist max-min
CS(=O)(=O)Cc1cccc(C(=O)NC2CCCCCC2)c1,-2,1
CC(=O)c1ccc(NC(=O)Cn2cnc([N+](=O)[O-])n2)cc1,-8,-14
CC1(C)Cc2ccccc2C2=CC(=O)C(=O)N21,2,-1
CC(c1ccncc1)n1ncc2cc(CCCO)cnc21 (stereo unspecified),0,-5
C=C1CC(=O)C2=C(C)C[C@H](OC(=O)/C(C)=C/C)C3[C@@H](OC(=O)[C@@]3(C)OC(=O)C=C(C)C)C12 (stereo partly specified),5,3
COc1cccc(-c2nnc(SCc3ccc(C(=O)NCc4ccco4)cc3)n2-c2cccc(C)c2)c1,17,24

(list continues)
SMILES	NPYLR7 agonist	NPYLR7 agonist max-min
Cc1ccsc1CNc1ccccc1C(=O)N(Cc1nccn1C)C1CC1	2	-1
CCOc1ccc(-n2c(=O)[nH]c3c(C(N)=O)nc(CCc4ccccc4)nc32)cc1	-4	-7
NS(=O)(=O)c1ccc(Sc2nnc3ccccn23)c([N+](=O)[O-])c1	12	9
CC(=O)c1ccc(N=Nc2c(-c3ccc([N+](=O)[O-])cc3)[nH]n(-c3ccccc3)c2=O)cc1	-3	-9
CN(C)CCN(C(=O)c1cccc([N+](=O)[O-])c1)c1nc2cc3c(cc2s1)OCO3	19	16
Cc1ccc2ncn(CC(=O)NC(C)c3ccc(C)c(C)c3)c(=O)c2c1 (stereo unspecified)	-4	-4
COc1ccc(CN(CCN2CCOCC2)CC(O)c2ccccc2)cc1 (stereo unspecified)	14	25
CN1CCN(C(=O)c2ccnc(-c3cc(N)nc4[nH]ccc34)c2)CC1	6	4
COc1ccc(Oc2cc(Cl)ncn2)cc1	-7	-1
CCOc1ccc2nc(N3CCCN(Cc4ccoc4)CC3)nc(C)c2c1	1	-2
CCCCN(Cc1cccn1Cc1ccc(Br)cc1)C(=O)CN(CCCOC)S(=O)(=O)c1ccc(Cl)cc1	2	14
CN(CC1COCCO1)S(=O)(=O)NCc1ccccc1 (stereo unspecified)	4	1
CC(C)(CNC(=O)c1sccc1-c1ccccc1)N1CCOCC1	1	-1
CCc1nc2n(n1)C(=O)C(C(c1cccc(C)c1)N1CCN(C(C)=O)CC1)S2 (stereo unspecified)	0	-8
COc1ccc(CN(C)Cc2nc(-c3ccccn3)no2)c2cccnc12	14	8
O=C(NCCc1ccccc1)N1CCCC(Nc2ccc3c(c2)OCO3)C1 (stereo unspecified)	16	9
Cc1ccc2nc(CSc3ncnc4sc5c(c34)CCC5)cc(=O)n2c1	2	9
CCN(CC)C(=O)Cn1cc(SCC#N)c2ccccc21	-4	-7
COCCNC(=O)Cn1nc2c(c1NC(=O)Cc1ccc(OC)cc1)CSC2	-3	1
CCn1c(SCc2nnc(C)o2)nnc1-c1ccc(Cl)cc1	3	0
CCS(=O)(=O)c1ccc(O)c(NC(=O)COc2ccc(Cl)c(C)c2)c1	14	4
COc1cccc(CN(Cc2ccc(F)cc2)CC(O)Cc2ccccc2)c1OC (stereo unspecified)	31	33
CCOc1ccccc1NC(=O)N1CC(=O)N2CCc3cc(OC)c(OC)cc3C2C1 (stereo unspecified)	24	5
O=C(CN1CCN(CCOc2ccccc2)CC1)Nc1ccccc1N1CCCC1	-3	-8
CC1CC(C)CN(CCNC(=O)c2scnc2Cl)C1 (stereo unspecified)	-4	-4

Continued:
SMILES	NPYLR7 agonist	NPYLR7 agonist max-min
CCN1C(=O)C2(CCCCC2)NC1c1cnc(C(C)(C)C)s1 (stereo unspecified)	2	-2
Cc1cccc(NC(=O)CC2CSc3ncc(C)c(=O)n32)n1 (stereo unspecified)	-3	-4
Cc1csc(Cn2nnc(-c3ccccc3Br)n2)n1	-1	-1
COc1ccc(CCN2CC(C(=O)NCCN3CCCC3=O)CCC2=O)cc1 (stereo unspecified)	3	1
C=CC[C@@H]1CC=C[C@@H](C)N1C(=O)CCn1c(C)cc(C)nc1=O	-5	-5
O=C(CNC(=O)c1ccc(Cl)cc1)N=Nc1c(O)[nH]c2ccccc12	4	-3
COc1ccc(CCOc2nc(-c3ccccc3F)n(-c3ccc(N)cc3)n2)cc1	-5	-13
CCOc1ccccc1NC(=O)Cn1c(=O)n(Cc2ccco2)c(=O)c2oc3ccccc3c21	13	8
CCN(CC)S(=O)(=O)c1ccc(OC)c(N2CCN(C(=O)C3(c4ccc(Cl)cc4)CCCC3)CC2)c1	22	15
CN(Cc1ccccc1)c1ncccc1CNC(=O)c1ncoc1C1CC1	-1	-4
COc1cccc(COc2c[nH]c(C(=O)Nc3ccccc3OC)cc2=O)c1	-1	-2
CC(Cc1ccc2c(c1)OCO2)CN1CCn2c(nnc2C(=O)NC2CCCCC2)C1 (stereo unspecified)	8	4
Cc1ccc2cc(CN3CCN(Cc4cccc(F)c4)CC3)c(=O)[nH]c2c1	9	6
CCCNC(=O)CN(C)C(=O)CCC(=O)c1cc(C)sc1C	1	17
O=C(O)c1ccc(N2C(=O)C3C4C=CC(C4)C3C2=O)cc1 (stereo unspecified)	-6	-7
O=c1c2nnn(-c3ccc(Cl)cc3)c2ncn1Cc1cccc2ccccc12	-5	-7
COc1ccc(Br)cc1S(=O)(=O)N1CCCN(Cc2ccc(Cl)cc2)CC1	19	7
CSc1sc(C)cc1/C=N\NC(=O)C(NC(=O)c1ccccc1)c1n[nH]c(=O)c2ccccc12 (stereo unspecified)	-8	-14
CN(C)c1nc(N(C)C)nc(N(C#N)Cc2ccc(Cl)cc2)n1	2	0
COc1ccccc1C1=NN(C(=O)c2cccc(F)c2)C(c2ccc3nccnc3c2)C1 (stereo unspecified)	0	8
O=C(c1ccc(-n2cnnc2)cc1)N1CCCC1C(F)(F)F (stereo unspecified)	8	7
Cc1cc(N)n(-c2nc(-c3cccs3)cs2)n1	-3	-5
CC(C)c1ccccc1NC(=O)c1ccc(-c2ccccc2CO)o1	0	-3
CN(C)C(=O)N1CCC(C(=O)NC2CC(=O)N(C3CCCCCC3)C2)CC1 (stereo unspecified)	3	0
Cc1cc(N2CCCC(c3[nH]ncc3Cc3ccccc3)C2)nc(N)n1 (stereo unspecified)	2	-2

(continued)
SMILES	NPYLR7 agonist	NPYLR7 agonist max-min
Cc1ccccc1C1c2ccsc2CCN1C(=O)CN(CC1CCCO1)C(=O)C(C)(C)CCl (stereo unspecified)	-2	6
O=C1CSc2ccc(C(=O)N3CC=C(c4ccccc4)CC3)cc2N1	10	11
COCCNC(=O)c1sc(=O)n(Cc2ccc(S(C)(=O)=O)cc2)c1C	-4	-5
CC/C=C(\C)CN1CCC(CNC(=O)c2cccc(O)c2C)C1 (stereo unspecified)	27	16
Cc1nc2n(n1)C(=O)C(C(c1cccs1)N1CCN(Cc3ccccc3)CC1)S2 (stereo unspecified)	4	2
Clc1ccc(/C=N\Nc2nc(N3CCCC3)nc(N3CCOCC3)n2)cc1	-1	-3
CCS(=O)(=O)c1ccc(-c2ccc(NS(=O)(=O)c3cc(C)c(C)cc3C)cc2)nn1	-5	-7
Cc1ccccc1N1CCN(c2ncccc2CNC(=O)NC(C)(C)C)CC1	1	42
CCn1nccc1C(=O)N(CC1CCCO1)c1nc2c(Cl)cccc2s1 (stereo unspecified)	3	5
CSc1ccc(COc2coc(CN3CCN(C(=O)c4ccc(NC(C)=O)cc4)CC3)cc2=O)cc1	20	7
COc1cc(OC)c2c(c1)S(=O)(=O)C(c1ccccc1)=C2N	0	-5
CN(C)CCN1CC(C(=O)N(C)Cc2nc3ccc(F)cc3[nH]2)CC1=O (stereo unspecified)	14	-2
CC=CCSc1nc2c(c(=O)[nH]c(=O)n2C)n1CC=CC	-6	11
CCOC(=O)C1(Cc2cccc(Cl)c2)CCCN(Cc2cnc(N)nc2)C1 (stereo unspecified)	-5	2
COc1cccc(CN(Cc2ccc3c(c2)OCO3)Cc2nc(C(=O)NCCc3ccccn3)co2)c1OC	8	0
CC(C)C(=O)Nc1ccc(SCc2cccnc2)nn1	-1	-2
CC(=O)CCN1C(=O)NC(C)(c2c(F)cccc2F)C1=O (stereo unspecified)	2	1
O=S(=O)(c1ccc(Nc2cn[nH]c2)cc1)C(F)(F)F	1	2
Cc1ccsc1[C@@H]1CCN(C(=O)CCNC(=O)c2ccccc2F)C[C@H]1O	12	-2
O=C(c1c(F)c(F)cc(F)c1F)N1CC(=O)N2CCc3c(F)cccc3C2C1 (stereo unspecified)	1	-1
CN1CCCC2(CC1)CCN(C(=O)CCCOc1ccccc1)CC2	8	-1
COc1cc2c(cc1OC)C(c1ccccc1)N(C(=O)Nc1cccc(C#N)c1)CC2 (stereo unspecified)	1	12
CC(C)c1cc2c(=O)[nH]c(CN(Cc3ccccc3)CC(O)COc3ccc(Cl)cc3)nc2s1 (stereo unspecified)	-5	4
CCn1c(C2CCN(CCC(C)c3ccc(C)o3)CC2)n[nH]c1=O (stereo unspecified)	-3	-3
CCc1nc(C)c(C(=O)NCCSc2nnc(C)s2)s1	6	3

Reprinted from the listing for reference:
SMILES	NPYLR7 agonist	NPYLR7 agonist max-min
O=C(c1c(F)c(F)cc(F)c1F)N1CC(=O)N2CCc3c(F)cccc3C2C1 (stereo unspecified)	1	-1
CN1CCCC2(CC1)CCN(C(=O)CCCOc1ccccc1)CC2	8	-1
COc1cc2c(cc1OC)C(c1ccccc1)N(C(=O)Nc1cccc(C#N)c1)CC2 (stereo unspecified)	1	12
CC(C)c1cc2c(=O)[nH]c(CN(Cc3ccccc3)CC(O)COc3ccc(Cl)cc3)nc2s1 (stereo unspecified)	-5	4
CCn1c(C2CCN(CCC(C)c3ccc(C)o3)CC2)n[nH]c1=O (stereo unspecified)	-3	-3
CCc1nc(C)c(C(=O)NCCSc2nnc(C)s2)s1	6	3

(further entries)
SMILES	NPYLR7 agonist	NPYLR7 agonist max-min
CCCC1COCCN1C(=O)CN1CC(=O)NC1=O (stereo unspecified)	1	-2
CS(=O)(=O)c1ccccc1S(=O)(=O)N1CCC(Oc2ccccc2)CC1	1	10
CCS(=O)(=O)Oc1cccc(CN(CCOC)C(=O)Nc2ccccc2OC)c1	7	9
O=C(c1ccc(Cl)c(Cl)c1)N1CCN(C(=O)c2ccc(Cl)c(Cl)c2)CC1	0	21
CCN(CC)C(=O)Oc1ccc2c(ccn2Cc2cccc(C)c2)c1NC(=O)COC	0	8
Cc1ncc(Cl)c(C(=O)Nc2ncc(C)[nH]2)n1	-4	-7
CN(C)C(CNC(=O)c1ccc(S(=O)(=O)NC2CC2)o1)c1ccco1 (stereo unspecified)	-1	-2
O=C(c1nc2ccccc2s1)N(CCCN1CCOCC1)c1nc2ccc(F)cc2s1	-2	-6
OCCC1CN(Cc2nc3c(s2)CCCC3)CCN1Cc1cccs1 (stereo unspecified)	4	1
Cc1cc(C)n(-c2cncc(N3CCCC(C(N)=O)C3)n2)n1 (stereo unspecified)	7	1
CCC(=O)NC(C)c1sc(-c2ccccc2F)nc1C (stereo unspecified)	-9	-10
Cc1ccccc1-c1cn[nH]c1C1CCNCC1	1&-1	2&-1
CCc1ccccc1NC(=O)Cn1nc(-c2cccs2)c2sc(N3CCOCC3)nc2c1=O	-4	-9
O=C(NC(c1ccc(Cl)cc1)c1cnccn1)C1CCN(Cc2c[nH]c3ccccc23)CC1 (stereo unspecified)	-13	-13

These rows are one share of the data (hit frequency here may not be typical).
